# 4-MU autofl – 4-MU region autofluorescence; compound autofluorescence, 340/450 nm, 4-MU equivalents; active compounds read high; max dye-equivalent concentration, M; actives 11% (n = 59,000); AID 589; in the data active = max dye-equivalent concentration above about 10 nM; inconclusive = mostly about 1.1 nM to 9.6 nM
#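 Compounds in 100 mM Tris, pH 8.0, incubated 15 min at room temperature, then fluorescence read at 340 nm excitation/450 nm emission. Signal converted to 4-MU dye-equivalent concentration using an on-plate six-point 4-MU standard curve.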
# A350 fluor – compounds fluorescent in Alexa 350 spectral region | Compound autofluorescence, 340/450 nm, Alexa 350 dye-equivalents; active compounds read high | max dye-equivalent concentration, M | AID 590 | actives 11% (n = 59,000); in the data active = max dye-equivalent concentration above about 10 nM; inconclusive = mostly about 1.1 nM to 9.6 nM
# BRCT inh green – BRCA1 BRCT-phosphoprotein interaction inhibition. AID 875. BRCA1 BRCT-phosphopeptide binding, green fluorescence polarization. Potency, µM (top dose mostly 76.9 µM), without a hit: top-dose activity change, negative = inhibition, hits mostly inhibitors. actives 0.05% (n = 75,000). P38398;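 note: potency is the fitted concentration of half-maximal effect; plate controls were peptide without protein for full effect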
# Target sequence (P38398 whole entry, looked up): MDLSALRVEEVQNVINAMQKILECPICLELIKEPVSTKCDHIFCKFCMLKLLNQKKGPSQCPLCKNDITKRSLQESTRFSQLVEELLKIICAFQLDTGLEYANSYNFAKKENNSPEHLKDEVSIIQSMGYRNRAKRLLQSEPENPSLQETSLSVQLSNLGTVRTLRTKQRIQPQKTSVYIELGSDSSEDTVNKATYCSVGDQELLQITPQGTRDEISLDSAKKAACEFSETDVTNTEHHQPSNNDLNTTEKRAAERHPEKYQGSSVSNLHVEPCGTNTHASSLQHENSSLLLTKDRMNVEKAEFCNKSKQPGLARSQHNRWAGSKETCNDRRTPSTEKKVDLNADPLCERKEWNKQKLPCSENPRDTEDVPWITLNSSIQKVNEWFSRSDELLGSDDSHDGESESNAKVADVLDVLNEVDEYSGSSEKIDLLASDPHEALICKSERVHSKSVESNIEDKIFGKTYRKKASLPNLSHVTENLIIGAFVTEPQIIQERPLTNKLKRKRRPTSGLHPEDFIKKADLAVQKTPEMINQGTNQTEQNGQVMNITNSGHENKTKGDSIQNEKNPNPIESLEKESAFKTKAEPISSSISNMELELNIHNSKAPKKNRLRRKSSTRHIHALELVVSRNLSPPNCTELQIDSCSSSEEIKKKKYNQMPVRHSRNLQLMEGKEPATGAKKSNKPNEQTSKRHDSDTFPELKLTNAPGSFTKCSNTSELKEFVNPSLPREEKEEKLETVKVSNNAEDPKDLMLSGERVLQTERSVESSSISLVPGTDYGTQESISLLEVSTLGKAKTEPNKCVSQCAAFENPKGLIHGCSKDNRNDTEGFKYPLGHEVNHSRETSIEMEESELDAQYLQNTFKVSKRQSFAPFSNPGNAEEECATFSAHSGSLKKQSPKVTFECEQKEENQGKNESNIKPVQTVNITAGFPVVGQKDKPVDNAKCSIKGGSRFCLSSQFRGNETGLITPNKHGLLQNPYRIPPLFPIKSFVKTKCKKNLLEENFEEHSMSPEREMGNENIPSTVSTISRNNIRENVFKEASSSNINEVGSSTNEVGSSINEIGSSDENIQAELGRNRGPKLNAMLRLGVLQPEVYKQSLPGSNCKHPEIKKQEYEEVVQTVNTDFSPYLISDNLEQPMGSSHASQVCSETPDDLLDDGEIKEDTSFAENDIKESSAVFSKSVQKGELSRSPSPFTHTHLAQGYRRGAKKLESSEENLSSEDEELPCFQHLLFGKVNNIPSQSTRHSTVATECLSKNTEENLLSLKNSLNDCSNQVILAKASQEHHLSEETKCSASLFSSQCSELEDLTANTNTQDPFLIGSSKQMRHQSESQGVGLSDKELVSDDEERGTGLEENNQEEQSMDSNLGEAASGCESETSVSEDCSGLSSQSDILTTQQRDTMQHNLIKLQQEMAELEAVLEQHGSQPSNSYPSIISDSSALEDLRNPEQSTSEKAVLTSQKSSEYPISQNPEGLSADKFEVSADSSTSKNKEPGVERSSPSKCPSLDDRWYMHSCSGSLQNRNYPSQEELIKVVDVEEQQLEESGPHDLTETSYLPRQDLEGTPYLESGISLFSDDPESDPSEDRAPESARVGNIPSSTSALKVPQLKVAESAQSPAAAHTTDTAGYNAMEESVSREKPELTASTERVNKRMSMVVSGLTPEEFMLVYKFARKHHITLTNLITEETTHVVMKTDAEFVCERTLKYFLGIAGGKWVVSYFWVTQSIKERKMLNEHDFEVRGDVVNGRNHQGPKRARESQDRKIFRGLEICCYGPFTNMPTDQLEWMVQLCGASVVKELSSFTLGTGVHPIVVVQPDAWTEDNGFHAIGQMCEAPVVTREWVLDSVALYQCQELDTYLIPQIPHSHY
#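 Fluorescence polarization: His-tagged BRCT (~35 kDa BRCA1 C-terminus, 250 nM) bound to 100 nM fluorescein-labeled phosphorylated 10-aa BACH1 peptide, pH 7.3 phosphate buffer with DTT and Tween 20. Compounds incubated 12 min at room temperature; inhibition read as lowered polarization.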
# UbGFP stabilizer – proteasome inhibitors stabilizing ubiquitin-GFP reporter | Ubiquitin-GFP reporter cells, proteasome inhibition, GFP fluorescence; response scale: untreated = 0%, 10 µM MG-132 = 100% | Potency, µM (top dose mostly 45.9 µM), inactives show top-dose activation (GFP accumulation), hits mostly activators | 67,000 tested, under 10 active; active = well fitted activation curve with a large enough effect, not every such curve was filed as active; inconclusive = small, poorly fitted or top-dose-only effect, or another doubt; inactive = no such curve, though single readings can be large or run the other way; note: potency is the fitted concentration of half-maximal effect
#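 U2OS Ub(G76V)-GFP reporter; O/N plating, 0.5% FBS; cpd 46 uM–2.9 nM, 4 h, 37 °C; GFP+ cell count, 488/515 nm; norm. to basal vs 10 uM MG-132; CRC fit.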
# DNA Pol III inh – DNA polymerase III holoenzyme inhibition; reconstituted DNA polymerase III holoenzyme replication, biochemical; Potency, µM (doses to about 57.1 µM), without a hit: at the highest dose activity change, negative = inhibition; actives 0.25% (n = 71,000); AID 603; note: potency is the fitted concentration of half-maximal effect; % is set by controls: 0 for no effect and ±100 for the full control effect
#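 Reconstituted *E. coli* holoenzyme (0.35 nM Pol III, 1 nM beta, 154 nM SSB, 2 nM primase) was preincubated with compound for 15 min at RT. Synthesis on 1.4 nM ssM13Gori ran 35 min, then was stopped with PicoGreen/EDTA and read as dsDNA fluorescence.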
# GFP derepression – epigenetic GFP locus derepression in mouse cells; actives 0.09% (n = 68,000); mouse C127i GFP locus derepression, cytometry, 30 h; Potency, µM (top dose mostly 46.1 µM), inactives show at the top dose GFP derepression (activation); note: % of control where 0% means no effect
#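 Derepression screen: silenced CMV-GFP reporter in murine C127i cells, 30 h compound incubation at 37 C, washed cells imaged by laser-scanning cytometer to enumerate GFP-expressing objects of 20 to 120 um.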
# HBB splice mod – hemoglobin beta splicing modulation | actives 0.06% (n = 65,000) | Potency, µM (doses to about 46.1 µM), without a hit: top-dose activation, most hits filed as activators | HBB splicing reporter cell assay, activation; EGFP reporter with mutant IVS2-654 intron; response scale: normalised to 500 nM splice-correcting PNA | AID 925; note: potency is the fitted concentration of half-maximal effect; 0% is about no effect
#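 HeLa cells stably expressing EGFP interrupted by mutant beta-globin intron 2 (IVS2-654), 500/well in 2% FCS. Treated with compound for 2 days at 37C. Splicing correction scored as total well GFP intensity (488 nm excitation, 500-520 nm emission); 500 nM antisense PNA served as control.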
# ALOX15 inhib – 15-hLO (ALOX15) enzyme inhibition; P16050; purified 15hLO-1, xylenol orange hydroperoxide absorbance; Potency, µM (series often up to 57.1 µM), inactives show at the top dose activity change, negative = inhibition, most hits filed as inhibitors; actives 1.4% (n = 74,000); note: potency is the fitted concentration of half-maximal effect; % is set by controls: 0 for no effect and ±100 for the full control effect; nearly all actives have a fitted effect of over 55% in size
#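 Purified human 15hLO-1 (40 nM) in 25 mM Hepes pH 7.5, 0.01% Triton X-100, preincubated 15 min RT with compound, then 50 uM arachidonic acid for 6 min. Hydroperoxide read by ferrous/xylenol orange, 30 min; 573/405 nm absorbance ratio gave progress.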
# CRE Fsk mod – CRE-bla signaling modulation under forskolin stimulation; CHO CRE-bla reporter (cAMP response element driving beta-lactamase), forskolin EC10, beta-lactamase ratio; Potency, µM (series often up to 38.2 µM), for the others: top-dose activity change, negative = inhibition, actives largely listed as activators; actives 2.5% (n = 71,000); AID 662; active = well fitted activation curve with a large enough effect in the signal ratio, with a control signal flat, not every such curve was filed as active; inconclusive = small, poorly fitted or top-dose-only effect, or effect the other way, or a change in a side signal; the % refers to the signal ratio; note: potency is the fitted concentration of half-maximal effect; % of control where 0% means no effect
#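 The 460nm/530nm emission ratio after CCF4 loading defined %Activity, from which AC50 values were obtained. CRE-bla CHO cells received compound dilution series together with an EC10 level of NKH 477 for 3 hours at 37 degrees Celsius.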
# BRCT inh red – inhibitors of human BRCA1 BRCT-phosphoprotein interaction (red fluorophore) | BRCT-phosphopeptide binding, red fluorescence polarization | actives 0.03% (n = 75,000) | P38398 | Potency, µM (series often up to 76.9 µM), inactives show at the highest dose activity change, negative = inhibition, usual class: inhibitors | AID 892; note: % is set by controls: 0 for no effect and ±100 for the full control effect
#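 Rhodamine-labelled pBACH1 10-mer (100 nM) bound to BRCT domain (100 nM) at pH 7.3; compounds incubated 12 min room temperature, polarization read. Free peptide defines full inhibition; unlabelled decapeptide titrated as control.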
# An asterisk follows results filed as active; i = inactive; ? = inconclusive; . = not tested or not shown; [ ] = another dose, or the depositor's remark. Unless noted, calls come from the whole dose curve; as a rule, active = well fitted curve in the direction sought with a large enough effect; inconclusive = small, poorly fitted or top-dose-only effect, or another doubt; inactive = no such curve, though single readings can be large; an effect the other way counts as inactive or inconclusive. A portion of the library (hit frequency here may not be typical).
1	N#Cc1cnc(SCC(=O)Nc2ccccc2C(F)(F)F)nc1N
2	COc1cccc(-c2cc(C(F)(F)F)nc(-n3cncn3)n2)c1
3	CCC(Sc1ccc2nnc(-c3ccc(F)cc3)n2n1)C(=O)OC (centres undefined)
4	Cc1ccc(Nc2nc(N)nc(CN3CCCCCC3)n2)cc1
5	COCCN(CCOC)S(=O)(=O)c1ccc(C(=O)NCCCN2CCOCC2)cc1
6	COc1ccc(CN2CC(C(=O)NCc3ccccn3)CC2=O)cc1 (centres undefined)
7	COC(=O)C1CCN(c2nc3ccccc3nc2C(C#N)C(=O)OCC(C)C)CC1 (centres undefined)
8	CC1(C)Cc2c(C#N)c(SCC(=O)c3ccccc3)nc(N3CCOCC3)c2CO1

Compound,1,2,3,4,5,6,7,8
4-MU autofl,1e-08M*,1.5e-08M*,?,i,i,?,?,.
A350 fluor,1.1e-08M*,1.5e-08M*,?,i,i,?,?,.
BRCT inh green,4.6%,-1.1%,0.5%,0.9%,-1.2%,0.0%,0.1%,3.2%
UbGFP stabilizer,-3%,7%,-3%,1%,-2%,2%,7%,-1%[9.17 µM]
DNA Pol III inh,4%,-10%,-6%,-1%,-3%,-1%,4%,-11%[11.4 µM]
GFP derepression,-2%,2%,0%,0%,-2%,0%,6%,-2%
HBB splice mod,-4.9%,-1.4%,3.5%,0.7%,-2.7%,-4.0%[0.369 µM],-2.0%[1.84 µM],-0.1%[0.0738 µM]
ALOX15 inhib,-1%,-2%,-21%,-2%,3%,22%,-6%,-13%[11.4 µM]
CRE Fsk mod,?,?,7%,0%,-5%,-2%,?,?
BRCT inh red,0.7%,-1.5%,-0.4%,0.8%,0.9%,0.5%,-1.2%,0.4%

9	CCOc1cccc(/C(O)=C2/C(=O)C(=O)N(CCOC)C2c2ccco2)c1 (centres undefined)
10	CCOC(=O)C1CCCN(C(=O)c2cc3ncc(Br)cn3n2)C1 (centres undefined)
11	CC(=O)c1cc2c(=O)c3cc(C)ccc3oc2nc1C
12	O=C(CCC(=O)c1ccc[nH]1)c1ccc(Cl)cc1
13	COc1ccccc1Nc1nc(N)nc(CN(C)C2CCCCC2)n1
14	Cc1noc(C)c1S(=O)(=O)NCc1ccc2c(c1)OCO2
15	O=C(NCCCn1ccnc1)c1cc(C2CC2)on1
16	CC(=O)Nc1cc(S(=O)(=O)C(F)(F)F)ccc1Cl

Compound,9,10,11,12,13,14,15,16
4-MU autofl,i,i,2.5e-08M*,i,i,.,.,i
A350 fluor,i,i,2.7e-08M*,i,i,.,.,i
BRCT inh green,2.2%,-1.6%,-2.0%,-0.6%,-1.3%,0.0%,-1.0%,-0.8%
UbGFP stabilizer,-5%,-3%,-7%,-3%,-3%,7%,3%,1%
DNA Pol III inh,-11%,4%,2%,-10%,-1%,2%,-4%,-3%
GFP derepression,0%,0%,-3%,1%,0%,2%,-3%,2%
HBB splice mod,.,1.6%,2.7%,-3.8%,-1.0%,1.0%,-0.1%,-0.5%
ALOX15 inhib,47%[activator],-1%,3%,-22%,-11%,-3%,7%,5%
CRE Fsk mod,-4%,5%,19%,?,1%,-5%,-8%,8%
BRCT inh red,0.3%,0.2%,2.7%,-1.7%,0.2%,-0.1%,0.8%,-0.3%

17	COC(=O)CCn1nnc(-c2ccc(C)cc2)n1
18	COC(=O)C(CCCCNC(=O)OCc1ccccc1)NC(=O)CN (centres undefined)
19	O=C1CNCc2[nH]c3ccccc3c2N1c1ccccc1
20	CC(=O)Nc1nc(C)c(Oc2ccccc2)c(=O)[nH]1
21	Oc1c(C(c2cccs2)N2CCC3(CC2)OCCO3)sc2ncnn12 (centres undefined)
22	COc1cccc(CNC(=O)C2CCN(S(=O)(=O)c3ccc(F)cc3)CC2)c1
23	COc1ccc2c(c1)CCCC21NC(=O)NC1=O (centres undefined)
24	COC(=O)c1sc2nc3c(cc2c1N)COC(C)(C)C3

Compound,17,18,19,20,21,22,23,24
4-MU autofl,i,i,i,i,.,i,i,.
A350 fluor,i,i,i,i,.,i,i,.
BRCT inh green,-0.9%,-0.6%,-1.0%,-0.5%,4.7%,-0.8%,-0.8%,-0.2%
UbGFP stabilizer,0%,4%,1%,3%,10%,-1%,-4%,-4%
DNA Pol III inh,3%,-1%,-7%,-2%,-4%,-6%,0%,-9%
GFP derepression,2%,2%,-2%,0%,.,3%,-1%,2%
HBB splice mod,0.0%[57.5 µM],-0.8%,1.3%,.,-0.3%,-0.1%[57.5 µM],1.5%,-0.6%[9.22 µM]
ALOX15 inhib,11%,-1%,-9%,?,7%,-3%,-3%,-4%
CRE Fsk mod,0%,-11%,8%,0%,?,-8%,-14%,?
BRCT inh red,-2.3%,-1.3%,-1.5%,-1.1%,-0.6%,0.3%,-0.6%,-1.0%

25	Cc1cc(C)n(-c2nc3ccccc3nc2Nc2ccc(CC(=O)O)cc2)n1
26	CCOC(=O)C1=C(CC)Nc2ccccc2N=C1NC(=O)Nc1ccccc1OC
27	CC(=O)NC(Cc1ccccc1)C(=O)NC1CCN(C(=O)c2cnccn2)CC1 (centres undefined)
28	Cc1cc(C)n(-c2ccc(C(=O)NC3=NCCS3)cc2)n1
29	O=C1CC(c2ccccc2)CC(O)=C1C=NCC1CCCO1 (centres undefined)
30	Cc1cc(-n2nnc3ccccc32)nc2ccccc12
31	Cc1c(Cl)cccc1Nc1nc(N)nc(CSc2ncccn2)n1
32	O=C(O)c1cccc(NC(=O)C2CC(=O)N(Cc3ccccc3)C2)c1 (centres undefined)

Compound,25,26,27,28,29,30,31,32
4-MU autofl,.,i,i,i,.,i,i,i
A350 fluor,.,i,i,i,.,?,i,i
BRCT inh green,0.5%,0.1%,-0.6%,0.1%,0.2%,0.1%,0.4%,-0.9%
UbGFP stabilizer,9%,-3%,10%,-4%,-4%,-6%,-5%,-6%
DNA Pol III inh,-1%,-3%,-3%,-1%,-3%,10%,-1%,-6%
GFP derepression,.,0%,2%,1%,4%,3%,-2%,5%
HBB splice mod,-0.7%,-0.2%[57.5 µM],9.2%[1.84 µM],0.1%[57.5 µM],1.5%,7.8%,0.2%,0.5%
ALOX15 inhib,-17%,-3%,5%,-7%,4%,-3%,-3%,-4%
CRE Fsk mod,?,2%,?,17%,1%,?,?,-5%
BRCT inh red,-0.9%,-2.2%,-3.0%,1.3%,1.4%,0.0%,1.4%,-1.4%

# Reformatted as labelled records: part of the list above
(31) Cc1c(Cl)cccc1Nc1nc(N)nc(CSc2ncccn2)n1
  4-MU autofl: i	A350 fluor: i	BRCT inh green: 0.4%	UbGFP stabilizer: -5%	DNA Pol III inh: -1%	GFP derepression: -2%	HBB splice mod: 0.2%	ALOX15 inhib: -3%	CRE Fsk mod: ?	BRCT inh red: 1.4%
(27) CC(=O)NC(Cc1ccccc1)C(=O)NC1CCN(C(=O)c2cnccn2)CC1 (centres undefined)
  4-MU autofl: i	A350 fluor: i	BRCT inh green: -0.6%	UbGFP stabilizer: 10%	DNA Pol III inh: -3%	GFP derepression: 2%	HBB splice mod: 9.2%[1.84 µM]	ALOX15 inhib: 5%	CRE Fsk mod: ?	BRCT inh red: -3.0%
(32) O=C(O)c1cccc(NC(=O)C2CC(=O)N(Cc3ccccc3)C2)c1 (centres undefined)
  4-MU autofl: i	A350 fluor: i	BRCT inh green: -0.9%	UbGFP stabilizer: -6%	DNA Pol III inh: -6%	GFP derepression: 5%	HBB splice mod: 0.5%	ALOX15 inhib: -4%	CRE Fsk mod: -5%	BRCT inh red: -1.4%

# Continuation.
33	CCCOc1ccc(/C(O)=C2/C(=O)C(=O)N(CCN(C)C)C2c2ccco2)cc1 (centres undefined)
34	CC(C)[C@H](NC(=O)CCn1nnc2ccccc2c1=O)C(=O)O
35	CCCCCCCCCCCCC(=O)N1CCCC[C@H]1CNC(=O)[C@@H](N)CCCCN
36	Cc1cc(C)n(-c2nc3ccccc3nc2Nc2ccc3c(c2)OCO3)n1
37	COC(=O)CSc1nc(C)cc(Oc2ccccc2)n1
38	O=C(NCc1ccco1)c1cc2nc(-c3cccs3)cc(C(F)(F)F)n2n1
39	COc1cccc(NC(=O)CN2C(=O)COc3ccc(Cl)cc32)c1

Compound,33,34,35,36,37,38,39
4-MU autofl,.,i,.,.,.,.,.
A350 fluor,.,?,.,.,.,.,.
BRCT inh green,0.4%,-1.5%,-3.3%,0.5%,-0.5%,-1.1%,-0.2%
UbGFP stabilizer,0%,17%,1%,8%,6%,28%,-4%
DNA Pol III inh,3%,-8%,-3%,7%,-4%,-2%,-10%
GFP derepression,2%,-4%,1%,-8%,4%,14%,.
HBB splice mod,-1.0%,-2.1%,.,0.5%,0.2%,2.4%,-0.7%
ALOX15 inhib,?,-1%,13%[25.6 µM],-7%,5%,-3%,?
CRE Fsk mod,-1%,-5%,-6%,?,7%,?,-10%
BRCT inh red,1.4%,0.3%,0.0%,-0.9%,0.2%,-0.3%,1.8%

# Screening results (PubChem BioAssay)
